Screening data from PubChem BioAssay.
GLA inh pH 4.5 = inhibitors of human alpha-galactosidase A at pH 4.5 | P06280 | purified enzyme, 4-MU-alpha-Gal fluorescence, pH 4.5 | activity change, negative = inhibition, % at 105 µM | 230,000 tested, under 10 active | AID 1467; inconclusive = small, poorly fitted or top-dose-only inhibition, or a rising curve; inactive = flat fitted curve, though single readings scatter; no compound was filed as active;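 note: 0% = full activity with enzyme and -100% = basal without enzyme; dose as in the result columns while the protocol names 77 µM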
Rango release inh = inhibition of RanGTP-driven Rango-importin beta dissociation; Potency, µM (series often up to 46.1 µM), for inactives: at the top dose activity change, negative = inhibition; Biochemical FRET Rango-importin beta, RanGTP-induced dissociation; actives 0.071% (n = 340,000); O95149+P62826; active means falling FRET ratio curve, often poorly fitted, with flat reads before Ran was added; inconclusive means other falling curves, or compound fluorescence or quenching; inactive means flat or rising ratio curve;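 note: potency is the fitted concentration of half-maximal effect; % of control where 0% means no effect; nearly all actives have a fitted effect of over 45% in size; -100% = wells without RanGTP and RCC1; the record marks most hits as doubtful in a second field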
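Compounds sat 5 min at room temperature with 0.1 uM Rango biosensor plus 0.25 uM importin beta, then FRET pre-read. RanGTP-RCC1 (0.6 uM Ran, 2mM GTP, 0.2 uM RCC1) added for 45 min, and the CFP/YFP post-read measured blocked complex dissociation.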
Rango complex inh = inhibitors of Rango-importin beta complex formation; Q14974; Rango CFP/YFP FRET sensor + importin beta, 45 min; Potency, µM (titrated, usually from 92.2 µM), for the others: top-dose inhibition of complex formation; actives 0.031% (n = 340,000); active = rising FRET ratio curve, often small or poorly fitted; inconclusive = mostly compound fluorescence or quenching in the first reads; inactive = flat curves in all reads;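 note: potency is the fitted concentration of half-maximal effect; 0% = DMSO wells and 100% = buffer wells lacking importin beta; nearly all actives have a fitted effect of over 15% in size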
Target sequence (Q14974 whole entry, looked up): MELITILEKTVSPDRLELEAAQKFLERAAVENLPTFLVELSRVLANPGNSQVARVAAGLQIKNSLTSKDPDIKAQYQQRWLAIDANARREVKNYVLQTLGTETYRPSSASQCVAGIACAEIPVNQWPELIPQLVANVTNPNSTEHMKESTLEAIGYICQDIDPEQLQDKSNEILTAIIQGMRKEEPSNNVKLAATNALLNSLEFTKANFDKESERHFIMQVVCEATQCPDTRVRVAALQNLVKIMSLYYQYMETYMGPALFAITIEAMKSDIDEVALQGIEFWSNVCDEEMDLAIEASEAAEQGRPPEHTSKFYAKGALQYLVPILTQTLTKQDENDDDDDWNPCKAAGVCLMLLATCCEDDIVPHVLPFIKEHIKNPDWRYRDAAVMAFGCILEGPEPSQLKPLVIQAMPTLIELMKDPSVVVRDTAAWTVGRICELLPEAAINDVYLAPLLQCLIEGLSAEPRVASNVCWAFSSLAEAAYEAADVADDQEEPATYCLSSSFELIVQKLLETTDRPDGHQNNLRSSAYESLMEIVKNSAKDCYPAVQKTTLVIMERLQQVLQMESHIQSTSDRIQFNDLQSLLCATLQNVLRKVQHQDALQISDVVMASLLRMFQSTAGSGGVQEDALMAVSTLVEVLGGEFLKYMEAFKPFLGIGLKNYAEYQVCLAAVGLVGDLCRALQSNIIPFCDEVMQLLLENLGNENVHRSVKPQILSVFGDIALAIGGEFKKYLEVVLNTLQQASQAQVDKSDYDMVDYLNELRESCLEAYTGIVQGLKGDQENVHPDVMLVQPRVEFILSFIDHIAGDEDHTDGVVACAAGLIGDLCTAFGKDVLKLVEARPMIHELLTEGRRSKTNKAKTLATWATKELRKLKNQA
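FRET biosensor Rango (snurportin 1 IBB between N-terminal EYFP and C-terminal Cerulean), 50 nM in PBS/1 mM DTT/0.02% Tween-20/0.1% BSA, preincubated 5 min RT with compound; 0.125 microM importin beta added, 45 min RT, CFP/YFP FRET ratio read.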
miR-21 reporter = miR-21 reporter, rising signal; HeLa miR-21 FLuc reporter, luciferase, 48 h; Potency, µM (titrated, usually from 38.3 µM), for inactives: at the top dose reporter change, positive = more light; 340,000 tested, under 10 active; AID 2288; active = well fitted rising curve with a large enough effect; inconclusive = small, poorly fitted or top-dose-only effect; inactive = no such curve, though single readings can be large or run the other way;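 note: % of control where 0% means no effect; miR-21 action dims this reporter so a rising signal means less miR-21 action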
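HeLa miR-21-FLuc reporter line, endogenous miR-21; 2000 cells/well in DMEM/10% FBS; compound titration up to ~40uM final, 48 h, 37 degree Celsius; luciferase detection reagent, 15 min lysis, CCD luminescence.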
* marks the source's active call; other numbers are inactive results; u = inconclusive; x = not tested or not shown; & = joins results of further samples. Only part of the results is shown; rates above refer to the full screens.

SMILES	GLA inh pH 4.5	Rango release inh	Rango complex inh	miR-21 reporter
Cc1ccccc1-n1ncc2c1CC(C)(C)CC2NC(=O)C1CCC1 (centres undefined)	x	u	0.2%	-6%
O=C(NC1CCCc2ccccc21)c1ccccn1 (centres undefined)	x	-11%	1.9%	-10%
CCn1cc(Cl)c(C(=O)Nc2ccccc2C(N)=O)n1	3	11%	4.7%	-40%
CCOC(=O)[C@@H]1[C@H]2COc3ccc(Br)cc3[C@@H]2N2C(=O)N(c3ccc(Cl)cc3)C(=O)[C@@]12C	x	-15%	3.4%	x
Cc1c(Cc2ccccc2)c(NCCN(C)C)n2c(nc3ccccc32)c1C#N	-2	u	u	-2%
COc1cc(NC(=S)N2CCCC(CO)C2)c(OC)cc1Cl (centres undefined)	-4	-7%	-1.0%	-7%
CC1CCCC(NC(=O)NC(=O)CCl)C1C (centres undefined)	7	-10%	-1.2%	24%
CCS(=O)(=O)N1CCN=C1SCc1cccnc1	3	15%	-1.3%	-2%
COc1ccccc1-c1nnc(NC(=O)C(C)C)s1	4	-3%	5.3%	-29%
COc1ccccc1[C@H]1C(c2ccc(F)cc2)=NN(c2ccccc2)[C@@H]1CO	26	u	u	x
CCOC(=O)c1cc(-c2ccc(OC)cc2)nn1-c1ccc(C(=O)O)cc1	2	7%	-0.2%	-25%
COc1ccc(/C=N/NC(=O)c2ccccc2)cc1OS(=O)(=O)c1ccccc1	-9	-10%	2.4%	1%
CSc1ncc(Cl)c(C(=O)Nc2cccc(Cl)c2)n1	x	-3%	-1.5%	2%
Cc1oc(C)c(S(=O)(=O)NCc2cccs2)c1C(=O)O	0	-6%	2.5%	5%
Cc1cccc(-c2nc(Nc3ccc(O)cc3)c3ccccc3n2)c1	x	-1%	0.6%	8%
O=[N+]([O-])c1cc([N+](=O)[O-])c(Oc2cncc(Cl)c2)cc1NN1CCCCC1	x	5%	0.8%	-1%
Cc1ccc(S(=O)(=O)NCCSCc2ccco2)cc1	7	1%	2.3%	0%
Cc1cc(Cl)c(S(=O)(=O)N2CCN(c3ccccn3)CC2)cc1OCC(N)=O	0	-1%	2.9%	-4%
COc1ccc(N(C(C)C(=O)N/N=C/c2ccc(OC)c(OC)c2)S(C)(=O)=O)cc1 (centres undefined)	6	-7%	4.6%	-10%
Cc1ccc(C(C(=O)NC(C)(C)C)N(CC2CCCO2)C(=O)Cn2nnc(-c3ccc(C)o3)n2)cc1 (centres undefined)	-7	1%	0.2%	-6%
CC(=O)NC(NC(=S)Nc1ccc(N=Nc2ccccc2)cc1)C(Cl)(Cl)Cl (centres undefined)	-5	-1%	-4.7%	12%
NS(=O)(=O)c1cccc(NC(=O)CSc2ccccn2)c1	-18	-3%	0.7%	-36%
Cc1ccc(NC(=O)CCNC(=O)Cn2cnc3ccccc3c2=O)cc1F	x	-17%	2.9%	8%
FC(F)(F)Oc1ccc(NC(=S)Nc2ccc(OC(F)(F)F)cc2)cc1	-5	1%	-1.1%	29%
O=c1c2cc(N3CCOCC3)ccc2[nH]c(=S)n1CCCN1CCN(c2ccccc2F)CC1	-3	x	x	0%
CNS(=O)(=O)c1ccc(NC(=O)c2ccccn2)cc1	2	-25%	0.6%	-58%
O=C(COc1ccc(C(=O)c2ccccc2)cc1)NCC1CCCCC1	-16	1%	-1.3%	2%
Nc1c(C(=O)NCc2ccccc2)nnn1Cc1ccccc1	0	0%	4.3%	-12%
Cn1cc(CN(Cc2ccccn2)C[C@@H]2CCC(=O)N2)c(-c2ccccc2F)n1	0	-19%	0.0%	-4%
Cc1cccc(C)c1NC(=O)/C(C#N)=C/c1cccs1	-3	6%	0.2%	-4%
CCOC(=O)C1CN(C(C)(C)C)C(=O)C1=O (centres undefined)	-4	-11%	-5.1%	-3%
CCCn1c(SCC(=O)NC2CCCCC2)nnc1-c1ccco1	x	22%	-3.8%	-2%
CCN(c1ccccc1)S(=O)(=O)c1ccc(Cl)c(NC(=O)CNC(C)c2ccccc2)c1 (centres undefined)	x	-6%	0.2%	x
Cc1ccc(C(=O)OCC(=O)c2ccc(Br)cc2)cc1S(=O)(=O)N1CCOCC1	x	21%	0.0%	x
C=CCc1c(C)c(C#N)c2nc3ccccc3n2c1NCCN(C)C	-4	u	u	-3%
COc1ccc(CCNC(=O)C(=O)NCCCN2CCOCC2)cc1	4	-15%	0.0%	0%
CC(C)(C)C(=O)Nc1ccccc1C(=O)N1CCCC1	-1	10%	3.0%	-2%
Nc1nc(SCC(=O)N2N=C(c3ccc(Cl)cc3)CC2c2ccco2)n[nH]1 (centres undefined)	-7	9%	0.6%	-13%
Cc1ccc(S(=O)(=O)Oc2ccc(/C=N/N=C3/NC(=O)C(CC(=O)O)S3)cc2)cc1[N+](=O)[O-] (centres undefined)	x	-9%	-1.2%	-2%
COc1cccc(CC(=O)OCC(=O)NC(C)c2ccc(F)cc2)c1 (centres undefined)	x	2%	0.9%	x
Cc1cn[nH]c1	1	-11%	4.5%	x
O=C(NCc1ccccc1)Nc1cccn(Cc2cccc(F)c2)c1=O	4	-22%	2.8%	-23%
Nc1nnc(-c2cc3c(ccc4ccccc43)oc2=O)s1	-9	x	x	-18%
Cn1c(=O)[nH]c(=O)c2c1nc(N1CCCCC1)n2CCSc1nc2ccccc2o1	6	28%	2.2%	-5%
O=C(CCCCCCCC(=O)NNC(=O)Nc1ccccc1)NNC(=O)Nc1ccccc1	-1	23%	0.0%	-33%
COCCCn1c(=NC(=O)c2ccc3c(c2)OCO3)c(C#N)cc2c(=O)n3cccc(C)c3nc21	7	x	x	-5%
COc1ccc(S(=O)(=O)Nc2ccc(S(=O)(=O)N3CCCCC3)cc2)cc1C	-2	-3%	-4.1%	-8%
CCOC(=O)c1c(C)[nH]c(C(=O)OCC(=O)N2CCN(S(=O)(=O)c3ccccc3)CC2)c1C	-2	-12%	-0.3%	-1%
Cc1cc(F)ccc1NC(=O)CCc1c(C)nn(-c2ccc(N3CCCCC3)nn2)c1C	x	-9%	0.1%	18%
CCOC(=O)c1oc2ccccc2c1COC(=O)CNC(=O)c1ccc(C)cc1	x	-9%	2.9%	x

Next part:
SMILES	GLA inh pH 4.5	Rango release inh	Rango complex inh	miR-21 reporter
COc1ccc(C2/C(=C(/O)c3ccccc3)C(=O)C(=O)N2c2ccccn2)cc1 (centres undefined)	x	-6%	-1.0%	-4%
Cc1ccc(N2CC(C(=O)Nc3ccc(S(=O)(=O)Nc4nccc(C)n4)cc3)CC2=O)cc1 (centres undefined)	-3	0%	-0.3%	-2%
CN(C(=O)CSc1nncn1-c1ccccc1)C1CCS(=O)(=O)C1 (centres undefined)	x	-19%	u	x
Cc1nnc(SCC(=O)N/N=C/c2ccc(-c3ccc(C)c(Cl)c3)o2)s1	u	-18%	3.0%	-30%
Clc1cccc2sc(N3CCCCC3)nc12	-3	13%	1.9%	-43%
COc1ccc(S(=O)(=O)N2CCOCC2)cc1NC(=O)c1c(-c2ccccc2)noc1C	x	5%	0.8%	x
CC(C)CC(=O)NC(=S)Nc1ccccn1	1	-12%	1.1%	-27%
COc1ccc(NC(=O)/C=C/c2ccc(Br)o2)cn1	-4	-17%	u	-18%
O=C(c1cccnc1)N1CCC(Oc2ccc(C(=O)N3CCCC(O)C3)cc2)CC1 (centres undefined)	5	-1%	-4.2%	4%
Cc1ccc(C(=O)C(=S)N2CCOCC2)cc1	0	-4%	6.9%	0%

A second format for part of the listing above:
The line under a structure holds: GLA inh pH 4.5 | Rango release inh | Rango complex inh | miR-21 reporter
- CCN(c1ccccc1)S(=O)(=O)c1ccc(Cl)c(NC(=O)CNC(C)c2ccccc2)c1 (centres undefined)
 : x | -6% | 0.2% | x
- CCOC(=O)c1cc(-c2ccc(OC)cc2)nn1-c1ccc(C(=O)O)cc1
 : 2 | 7% | -0.2% | -25%
- COc1ccc(/C=N/NC(=O)c2ccccc2)cc1OS(=O)(=O)c1ccccc1
 : -9 | -10% | 2.4% | 1%

Full records, quoted from the list. Order of screens: GLA inh pH 4.5, Rango release inh, Rango complex inh, miR-21 reporter
`Cc1ccc(C(=O)C(=S)N2CCOCC2)cc1` across the screens: 0, -4%, 6.9%, 0%
`COc1ccc(S(=O)(=O)N2CCOCC2)cc1NC(=O)c1c(-c2ccccc2)noc1C` across the screens: x, 5%, 0.8%, x
`Cc1ccc(N2CC(C(=O)Nc3ccc(S(=O)(=O)Nc4nccc(C)n4)cc3)CC2=O)cc1` (centres undefined) across the screens: -3, 0%, -0.3%, -2%
`COc1ccc(NC(=O)/C=C/c2ccc(Br)o2)cn1` across the screens: -4, -17%, u, -18%
`CC(C)CC(=O)NC(=S)Nc1ccccn1` across the screens: 1, -12%, 1.1%, -27%

(listing goes on)
SMILES	GLA inh pH 4.5	Rango release inh	Rango complex inh	miR-21 reporter
COc1ccc(CNC(=O)c2cc3cc(OC)ccc3oc2=O)cc1	x	1%	0.1%	-1%&16%
CC(C)n1c(N2CCN(CC(=O)NCc3cccs3)CC2)nc2ccccc21	-2	15%	-2.7%	2%
CCN(CC)c1ccc(NC(=O)CSc2nc3ccccc3c(=O)n2-c2cc(S(=O)(=O)N(C)C)ccc2C)cc1	3	0%	2.2%	-7%
CCC(C)(C)NC(=O)CN(C(=O)CCC(=O)Nc1nccs1)c1ccc(C)cc1	x	-12%	-1.6%	1%
O=C(CSc1nc2ccccc2c(=O)n1CC1CCCO1)NCC1CCCO1 (centres undefined)	4	-4%	-0.1%	-2%
COc1ccc(-n2cc3ccc([N+](=O)[O-])cc3n2)cc1	x	-1%	u	-27%
COc1ccc(C(=O)Nn2c(C)nc3ccccc3c2=O)cc1	x	-5%	-0.2%	-1%
Cc1ccc(-n2c(C)cc(/C=N\NC(=O)CC(=O)NC(C)C)c2C)cc1	-7	6%	-2.9%	3%
Cc1cc(C(=O)Nc2ccccc2C(=O)O)ccc1NC(=O)COc1cccc(C)c1C	x	-17%	7.6%	-17%
CN1C(=O)C2(OCC(CO)([N+](=O)[O-])CO2)c2ccccc21 (centres undefined)	x	8%	-2.7%	-30%
O=C(O)C1CCN(c2ccc(Cl)nn2)CC1	-11	0%	3.2%	1%
CCN(CC)CCN1c2ccccc2Sc2ccccc21	x	3%	-0.2%	-14%
CC(=O)Oc1cccc(N2C(=O)C3CC=CCC3C2=O)c1 (centres undefined)	2	0%	1.5%	-1%
COc1cc(C2C(C(=O)/C=C/c3ccccc3)=C(O)C(=O)N2c2ccccn2)ccc1O (centres undefined)	8	-27%	u	4%
CC(C)(C)C(=O)N1CCN(c2ccc(Cl)cc2[N+](=O)[O-])CC1	0	4%	3.3%	-43%
CCn1c(C)c(C(C)=O)c(N2CCC(C(N)=O)CC2)nc1=S	1	-4%	1.9%	-1%
Cc1occc1C(=O)N/N=C/C=C/c1ccccc1	2	2%	0.6%	-59%
CCn1c(SCC(=O)Nc2ccccc2C(=O)OC)nnc1-c1ccc(N)cc1	0	-7%	-2.1%	-1%
Cc1ccc(CSc2nc3c(c(N(C)C)n2)CCCC3)cc1	-16	10%	-1.2%	7%
CCOc1cccc(CN2CCCC(C(=O)c3cccc(C(F)(F)F)c3)C2)c1O (centres undefined)	-8	-16%	0.1%	5%
O=C(c1cnn2c(C(F)F)cc(-c3ccccc3)nc12)N1CCN(Cc2ccc3c(c2)OCO3)CC1	x	-6%	u	6%
COc1ccc(NC(=O)CSCC(=O)NCc2cccc(C(F)(F)F)c2)cc1	x	-10%	0.6%	x
c1cncc(-c2cnc3ccccc3c2)c1	x	3%	0.2%	x
CCN1CCN(C(c2cccnc2)c2cc(Cl)c3cccnc3c2O)CC1 (centres undefined)	-2	4%	5.1%	14%
ON1C2CCCCC2N(O)C1c1ccccc1C(F)(F)F (centres undefined)	-3	-6%	2.5%	-6%
COc1cccc(C(=O)N2CCN(C(=O)C3COc4ccccc4O3)CC2)c1 (centres undefined)	x	1%	-0.7%	-1%
CC(C)(C)[C@H]1C=C(C(=O)NCc2nc3ccccc3[nH]2)O[C@@H](OCCCCO)C1	3	-10%	-1.4%	0%
O=C(NCc1cccnc1)Nc1ccc(Cl)cc1Cl	x	3%	-0.6%	-10%
O=C(O)c1ccccc1NC(c1ccccc1)c1ccc(Cl)cc1 (centres undefined)	x	0%	-1.7%	-1%
